Rango release inh: inhibitors of RanGTP-induced Rango-importin beta complex dissociation; O95149+P62826; Biochemical FRET Rango-importin beta, RanGTP-induced dissociation; Potency, µM (top dose mostly 46.1 µM), for inactives: at the highest dose activity change, negative = inhibition; hit rate 0.071% among 340,000; active means falling FRET ratio curve, often poorly fitted, with flat reads before Ran was added; inconclusive means other falling curves, or compound fluorescence or quenching; inactive means flat or rising ratio curve;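 further: potency means the concentration at half of the fitted maximal effect; % of control where 0% means no effect; nearly all actives have a fitted effect of over 45% in size; -100% = wells without RanGTP and RCC1; the record marks most hits as doubtful in a second field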
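Rango/importin beta premix (0.1/0.25 uM final), PBS + 1 mM DTT + 0.02% Tween-20 + 0.1% BSA; cpd 5 min RT; FRET pre-read; + RanGTP-RCC1 (0.6 uM Ran, 2 mM GTP, 0.2 uM RCC1); 45 min RT; FRET post-read, ex 430, em 486/530 nm.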
Rango complex inh: inhibitors of Rango-importin beta complex formation; AID 540263; Rango CFP/YFP FRET sensor + importin beta, 45 min; hit rate 0.031% among 340,000; Potency, µM (highest dose often 92.2 µM), inactives show at the top dose inhibition of complex formation; Q14974; active = rising FRET ratio curve, often small or poorly fitted; inconclusive = mostly compound fluorescence or quenching in the first reads; inactive = flat curves in all reads;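 further: potency means the concentration at half of the fitted maximal effect; 0% = DMSO wells and 100% = buffer wells lacking importin beta; nearly all actives have a fitted effect of over 15% in size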
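FRET biosensor Rango (snurportin 1 IBB between N-terminal EYFP and C-terminal Cerulean), 50 nM in PBS/1 mM DTT/0.02% Tween-20/0.1% BSA, preincubated 5 min RT with compound; 0.125 microM importin beta added, 45 min RT, CFP/YFP FRET ratio read.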
miR-21 FLuc: raises the signal of a miR-21 reporter; HeLa miR-21 FLuc reporter, luciferase, 48 h; Potency, µM (series often up to 38.3 µM), inactives show at the top dose reporter change, positive = more light; 340,000 tested, under 10 active; active = well fitted rising curve with a large enough effect; inconclusive = small, poorly fitted or top-dose-only effect; inactive = no such curve, though single readings can be large or run the other way;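 further: % of control where 0% means no effect; miR-21 action dims this reporter so a rising signal means less miR-21 action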
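HeLa cells endogenously expressing miR-21, stably carrying CMV-driven firefly luciferase with a downstream miR-21 binding site, 2000 cells/well. Titrations up to approximately 40 uM, 48 hours; luciferase luminescence read.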
GLA inh pH 4.5: blocks human alpha-galactosidase A at pH 4.5 | P06280 | purified enzyme, 4-MU-alpha-Gal fluorescence, pH 4.5 | activity change, negative = inhibition, % at 105 µM | 230,000 tested, under 10 active; inconclusive = small, poorly fitted or top-dose-only inhibition, or a rising curve; inactive = flat fitted curve, though single readings scatter; no compound was filed as active;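 further: 0% = full activity with enzyme and -100% = basal without enzyme; dose as in the result columns while the protocol names 77 µM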
Target sequence (P06280 whole entry, looked up): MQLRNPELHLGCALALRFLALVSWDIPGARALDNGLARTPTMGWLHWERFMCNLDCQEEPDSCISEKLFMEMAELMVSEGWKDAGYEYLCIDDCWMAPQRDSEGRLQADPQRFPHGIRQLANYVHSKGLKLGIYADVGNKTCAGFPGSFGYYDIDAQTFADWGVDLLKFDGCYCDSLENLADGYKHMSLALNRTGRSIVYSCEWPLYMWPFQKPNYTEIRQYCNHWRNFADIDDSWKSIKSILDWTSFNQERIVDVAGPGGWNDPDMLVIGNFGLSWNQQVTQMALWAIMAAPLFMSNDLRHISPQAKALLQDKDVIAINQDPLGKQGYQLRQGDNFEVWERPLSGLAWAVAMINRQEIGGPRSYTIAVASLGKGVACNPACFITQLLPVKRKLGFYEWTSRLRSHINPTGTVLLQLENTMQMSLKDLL
* hit, by the source's call; ? = inconclusive; · = no result given; & = joins results of further samples. The list is partial. The share of hits here may be higher or lower than overall.

SMILES	Rango release inh	Rango complex inh	miR-21 FLuc	GLA inh pH 4.5
CCOC(=O)c1ccc(N=Cc2cnc(N)nc2N)cc1	-13%	0.1%	·	·
CCOc1ccc(NC(=O)CCC(=O)OC)cc1	0%	3.0%	0%	6
COc1ccc(N2C(=O)NC3CC2(C)Oc2ccc(Cl)cc23)cc1OC (centres undefined)	26%	3.3%	18%	-2
COc1cc2nc(=S)n(CCCN3CCOCC3)c(N)c2cc1OC	-1%	0.1%	-1%	0
Cc1ccc(Oc2ncnc(N)c2[N+](=O)[O-])cc1	-20%	-0.1%	0%	3
O=C(CNC(=O)c1ccc2c(c1)OCCO2)N/N=C/c1ccc([N+](=O)[O-])cc1	0%	1.9%	-1%	·
Cc1cc(NS(=O)(=O)c2ccc(NC(=O)CCc3ccccc3)cc2)no1	-11%	4.5%	-14%	-7
COc1cc(-c2nnc(SCC(=O)c3ccccc3)o2)cc(OC)c1OC	-4%	-2.6%	-2%	4
CC(c1ccccc1C(O)c1ccccc1)N(C)C (centres undefined)	18%	3.4%	-1%	3
CCc1ccc(S(=O)(=O)NCc2ccc(N3CCN(C)CC3)cc2)cc1	4%	-0.4%	-3%	-2
CC(OC(=O)c1ccc(Cl)c(S(=O)(=O)N2CCOCC2)c1)C(=O)Nc1ccc(S(N)(=O)=O)cc1 (centres undefined)	-5%	-1.6%	·	·
O=C(O)c1ccc(-n2nc(-c3ccccc3)c3ccccc3c2=O)cc1	7%	-1.3%	-8%	·
COc1ccccc1CNC(=O)c1ccc(OC(F)F)c(OC)c1	-8%	0.3%	-16%	1
Cn1nnnc1SCCNCC#Cc1ccccc1	-7%	2.4%	-9%	8
Cc1onc(-c2ccccc2Cl)c1C(=O)N1CCc2ccccc21	14%	3.7%	-2%	-12
Cc1sc(NC(=O)c2ccco2)c(C(Nc2ccccn2)c2ccccc2)c1C (centres undefined)	-6%	-1.4%	-24%	0
COc1ccccc1CNC(=O)COC(=O)CC1CC2CCC1C2 (centres undefined)	2%	-0.3%	·	·
Cn1cnnc1Sc1ccc(C(=O)OCC(=O)Nc2cc(Cl)cc(Cl)c2)cc1[N+](=O)[O-]	10%	1.2%	1%	1
COCCN1Cc2cccc(C(=O)NC3CCCCCC3)c2C1=O	-3%	3.3%	-15%	0
O=C(CSc1ccccc1F)NNC(=O)c1ccncc1	1%	-1.8%	·	·
CC(C)(C)c1ccc(-n2ncc3c2CCCC3NC(=O)CCN2CCCO2)cc1 (centres undefined)	4%	-1.0%	15%	·
O=C(CNc1cc(S(=O)(=O)N2CCOCC2)ccc1NCC1CCCO1)Nc1ccccc1F (centres undefined)	0%	3.9%	-4%	·
CC1CN(c2oc(-c3ccco3)nc2S(=O)(=O)c2ccccc2)CC(C)O1 (centres undefined)	0%	-1.0%	-1%	3
CCOc1ccccc1N1CCN(C(=O)c2ccc3c(c2)OCO3)CC1	23%	1.9%	6%	·
Cc1ccc(C(=O)NCc2nnc(SCC(=O)NC(C)c3ccccc3)n2C)cc1 (centres undefined)	-2%	-0.4%	3%	5
CCCCCC(=O)NNC(=S)NC(=O)c1ccc([N+](=O)[O-])cc1	3%	1.9%	0%	2
O=C(CN1CSCC1=O)N1CCN(S(=O)(=O)c2cccc(F)c2)CC1	-13%	0.4%	·	·
COc1ccc(NC(=O)CS(=O)CC(=O)NCc2cccc(C(F)(F)F)c2)cc1 (centres undefined)	12%	1.8%	-2%	3
COc1ccc(C2CC(c3cccc(C)c3)n3nc(N)nc3N2)cc1 (centres undefined)	-24%	-2.4%	-6%	0
COc1ccc(-c2cc(C(=O)N3CCN(c4ccc(F)cc4)CC3)no2)cc1	1%	-2.7%	7%	·
Cc1cc(=O)c(C(=O)Nc2cccc(N3CCCC3=O)c2)nn1-c1ccccc1Cl	14%	5.0%	·	·
CC1(C)C2CCC(C2)C1C/C=N/NC(N)=S (centres undefined)	4%	-2.0%	12%	-6
CN(CCc1ccccc1)C(=O)c1ccc(NC(=O)Cc2ccc(NC(=O)C3CCN(C(=O)C4CC4)CC3)cc2)cc1	16%	0.2%	·	·
S=C(Nc1cccc(Cl)c1)Nc1ccc2c(c1)OCCO2	-13%	1.8%	-33%	·
CCCN1CCC(NC(=O)Cc2ccccc2OC)CC1	10%	6.0%	-8%	·
COc1ccc(N2CCN(C(=O)c3ccc(CNc4c(N5CCOCC5)c(=O)c4=O)cc3)CC2)cc1	14%	1.9%	-3%	·
CC(C)c1ccc(NC(=O)C2=CC=CN3CCS(=O)(=O)N=C23)cc1	9%	-2.8%	·	·
CC(C(=O)NCc1ccccc1)N1C(=O)C2CC=C(Cl)CC2C1=O (centres undefined)	-25%	?	-3%	-7
CN(C)CCN1C(=O)C(O)=C(C(=O)c2ccco2)C1c1ccccc1F (centres undefined)	14%	?	-2%	-8
CC(=O)c1ccc(N2CCN(C(=O)CCCc3nc4ccccc4s3)CC2)cc1	-14%	-1.9%	-10%	1
CCOC(=O)C1=C(COC(=O)CC(C)c2ccccc2)NC(=O)NC1C (centres undefined)	-3%	-1.6%	·	·
COc1ccc(N/C=C2/Sc3ccccc3NC2=O)cc1	-19%	5.8%	-55%	1
O=C(CSc1n[nH]c(-c2cccnc2)n1)Nc1ccc([N+](=O)[O-])cc1Br	0%	2.7%	-3%	·
Cc1ccccc1C(=O)Nc1ccccc1-c1nnn(CC(=O)Nc2ccc3c(c2)OCCO3)n1	-9%	2.0%	-4%	-6
CCOc1ccccc1CNC(=O)CCCn1ncn2c(cc3occc32)c1=O	-5%	1.6%	-3%&2%	·
CCc1cc(=O)oc2cc(C)cc(OC(C)C(=O)NC3CCN(Cc4ccccc4)CC3)c12 (centres undefined)	2%	-2.9%	-1%	·
Cc1nc(-c2cccc(NS(=O)(=O)c3cccc4ccccc34)c2)cs1	0%	1.8%	-9%	0
COc1ccc(NC(=O)c2[nH]ncc2[N+](=O)[O-])cc1	-9%	8.3%	-32%	8

Pulled by structure from the list above (2):
SMILES	Rango release inh	Rango complex inh	miR-21 FLuc	GLA inh pH 4.5
COc1ccc(N/C=C2/Sc3ccccc3NC2=O)cc1	-19%	5.8%	-55%	1
CN(C)CCN1C(=O)C(O)=C(C(=O)c2ccco2)C1c1ccccc1F (centres undefined)	14%	?	-2%	-8

(listing goes on)
SMILES	Rango release inh	Rango complex inh	miR-21 FLuc	GLA inh pH 4.5
Cc1nn(-c2ccccc2)c(C)c1C(=O)OCC(=O)NC(=O)NC1CCCC1	2%	-0.1%	-11%	2
COc1cc(NC(=O)c2ccc3nsnc3c2)cc(OC)c1OC	30%	1.8%	0%	·
COc1ccccc1CNC(=O)COC(=O)c1ccc(S(=O)(=O)N2CCCC2)cc1	-11%	-2.7%	-3%	4
COc1ccc2nc(NC(=O)Cn3cnc4ccccc4c3=O)sc2c1	-11%	-2.9%	-26%	-4
COc1ccccc1/C=C/C(=O)c1ccc(Cl)cc1	-5%	0.8%	6%	-17
O=C(NC(=S)Nc1ccc2cn[nH]c2c1)c1ccccc1	17%	-3.1%	-22%	-7
COc1ccc(N2CCN(C(=O)c3ccc4c(=O)n(CC5CCCO5)c(=O)[nH]c4c3)CC2)cc1 (centres undefined)	0%	1.0%	-2%	4
COc1ccc2[nH]c(=O)c(CN(CCO)S(=O)(=O)c3c(C)ccc4nsnc34)cc2c1	11%	2.3%	-6%	-4
CCOC(=O)Cn1nc(C)n(-c2c(C)cccc2C)c1=O	-2%	3.6%	5%	-5
O=C(COc1ccccc1)N1CCN(S(=O)(=O)c2ccc(Cl)cc2)CC1	3%	0.3%	-5%	9
N#Cc1nc(COc2ccccc2F)oc1NCc1ccc(F)cc1	5%	?	-23%	-10
CS(=O)(=O)Nc1ccc(C2=NN(C(=O)CCCC(=O)O)C(c3cccs3)C2)cc1 (centres undefined)	21%	-0.5%	0%	·
O=C(COC(=O)Cc1ccc(Cl)cc1)NCCc1ccccc1	-10%	2.4%	·	·
O=C(Nc1ccccc1F)C(=Cc1sc(N2CCOCC2)nc1-c1ccccc1)C(=O)Nc1ccccc1F	?	?	-5%	4
Nc1c(Cl)cc(-c2cn(CCC(=O)O)c(-c3ccncc3)n2)cc1Cl	6%	0.0%	·	·
O=C(Nc1ccc(C(=O)O)cc1)/C(=C\c1ccc2c(c1)OCO2)NC(=O)c1ccco1	-1%	0.8%	0%	-5
COc1ccccc1N1CCN(S(=O)(=O)c2ccc(NC(C)=O)cc2)CC1	-6%	-0.6%	0%	·
Cc1ccc(SC(CC(=O)c2ccc(C(C)(C)C)cc2)C(=O)O)cc1 (centres undefined)	0%	-1.5%	?	3
CCN1C(=O)N(CC)C2C1N(CO)C(=O)N2CO (centres undefined)	13%	-3.1%	0%	-4
COC(=O)c1cc2nc(-c3ccc(OC)c(OC)c3)cc(C(F)(F)F)n2n1	-11%	?	1%	-5
CN(CC(=O)OCC(N)=O)S(=O)(=O)c1ccc(Cl)cc1	21%	2.6%	3%	1
O=C(/C=C/c1ccccc1Cl)N1CCCN(C(=O)/C=C/c2ccccc2Cl)CC1	-4%	-1.3%	-8%	0
CCOC(=O)c1cn(CC)c2cc(F)c(F)cc2c1=O	-3%	1.8%	-3%	7
C=CCN1C(=O)C(CC(=O)NCC)SC1=Nc1ccccc1OC (centres undefined)	3%	-0.5%	-2%	·
O=c1[nH][nH]c(=O)c(Cl)c1Cl	1%	-1.6%	·	·
CCCC(O)(c1ccc(OC)cc1)C(CN(C)C)c1ccccc1 (centres undefined)	-6%	-2.5%	-5%	-1
COC(=O)c1nn(-c2ccc(F)cc2)ccc1=O	5%	0.2%	7%	-2
Cc1cc(NC(=O)c2ccc3nccnc3c2)ccc1Br	10%	2.8%	·	·
O=C(CN(Cc1ccccc1Cl)C(=O)CNS(=O)(=O)c1ccc(F)cc1)NCC1CCCO1 (centres undefined)	9%	1.1%	1%	·
C=CCOc1cccc(C2c3c(oc4ccccc4c3=O)C(=O)N2c2ccccn2)c1 (centres undefined)	?	-0.9%	0%	-9
Cn1nnnc1SCC(=O)NCC(=O)c1ccccc1	-11%	0.3%	-5%	2
CCC(=O)N1CCN(c2ccccc2NC(=S)NC(=O)c2ccco2)CC1	14%	0.6%	4%	·
COc1ccc(Cl)cc1-n1c(C)cc(C=O)c1C	10%	1.4%	0%	7
CCOC(=O)Nc1ccc2c(c1)C(=NNC(N)=S)c1ccccc1-2	-7%	3.2%	·	·
CCN(CC)S(=O)(=O)c1ccc(N=N/C(C(C)=O)=C(/C)O)cc1	2%	0.6%	-1%	-10
COCCn1c(-c2ccc(OC)cc2)cnc1SCC(=O)Nc1ccc(OC)cc1OC	3%	3.6%	-2%	-10

A second format for some results above.
> O=c1[nH][nH]c(=O)c(Cl)c1Cl
  Rango release inh = 1%; Rango complex inh = -1.6%; miR-21 FLuc = ·; GLA inh pH 4.5 = ·
> CCCC(O)(c1ccc(OC)cc1)C(CN(C)C)c1ccccc1 (centres undefined)
  Rango release inh = -6%; Rango complex inh = -2.5%; miR-21 FLuc = -5%; GLA inh pH 4.5 = -1
> COC(=O)c1nn(-c2ccc(F)cc2)ccc1=O
  Rango release inh = 5%; Rango complex inh = 0.2%; miR-21 FLuc = 7%; GLA inh pH 4.5 = -2
> Cc1cc(NC(=O)c2ccc3nccnc3c2)ccc1Br
  Rango release inh = 10%; Rango complex inh = 2.8%; miR-21 FLuc = ·; GLA inh pH 4.5 = ·

(more compounds)
SMILES	Rango release inh	Rango complex inh	miR-21 FLuc	GLA inh pH 4.5
CC/C(C)=N\N=C\c1c(O)n(CC)c2cc(C3=NNC(=O)CC3)ccc12	?	?	-20%	6
Cc1c(C(=O)N2CCCCC2)c(S(=O)(=O)N2CCN(c3ccccc3F)CC2)c(C)n1C	15%	4.6%	0%	·
O=C(COC(=O)c1ccc(F)c(S(=O)(=O)N2CCOCC2)c1)Nc1ccc2c(c1)OCO2	0%	-0.1%	·	·
CCOc1ccc(NC(=O)CSc2nc3cccnc3n2CC)cc1	1%	-0.8%	-1%	3
O=C(COC(=O)c1cccc(S(=O)(=O)N2CCCCC2)c1)NC1CCCCC1	-17%	?	·	·

High-throughput results from PubChem BioAssay.
